Menin MLL FP FL – menin-MLL binding inhibition, fluorescein peptide. Fluorescence polarization, fluorescein-MLL peptide displacement from menin. FP activity change, % at 61.4 µM. 290,000 tested, under 10 active; inconclusive = falling polarisation curve, or a change in total fluorescence; inactive = total fluorescence flat and polarisation flat or rising; no compound was filed as active; the % refers to the polarisation; negative = inhibition;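 also: % of control where 0% means no effect; inhibitors lower the polarisation; unlabelled MLL peptide was the positive control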
TRPV1 PAM – human TRPV1 potentiation | AID 540277 | Q8NER1 | TRPV1-expressing cells, Fluo-8 calcium influx, capsaicin EC20 potentiation; host cell line not named in the record; control for the full effect not named in the record | potentiation, % at 8.33 µM | 0.02% of 320,000 active; active means potentiation above 80%; inconclusive means 30% to 80%; inactive means below 30%; also: 0% is about no effect
Target sequence (Q8NER1 whole entry, looked up): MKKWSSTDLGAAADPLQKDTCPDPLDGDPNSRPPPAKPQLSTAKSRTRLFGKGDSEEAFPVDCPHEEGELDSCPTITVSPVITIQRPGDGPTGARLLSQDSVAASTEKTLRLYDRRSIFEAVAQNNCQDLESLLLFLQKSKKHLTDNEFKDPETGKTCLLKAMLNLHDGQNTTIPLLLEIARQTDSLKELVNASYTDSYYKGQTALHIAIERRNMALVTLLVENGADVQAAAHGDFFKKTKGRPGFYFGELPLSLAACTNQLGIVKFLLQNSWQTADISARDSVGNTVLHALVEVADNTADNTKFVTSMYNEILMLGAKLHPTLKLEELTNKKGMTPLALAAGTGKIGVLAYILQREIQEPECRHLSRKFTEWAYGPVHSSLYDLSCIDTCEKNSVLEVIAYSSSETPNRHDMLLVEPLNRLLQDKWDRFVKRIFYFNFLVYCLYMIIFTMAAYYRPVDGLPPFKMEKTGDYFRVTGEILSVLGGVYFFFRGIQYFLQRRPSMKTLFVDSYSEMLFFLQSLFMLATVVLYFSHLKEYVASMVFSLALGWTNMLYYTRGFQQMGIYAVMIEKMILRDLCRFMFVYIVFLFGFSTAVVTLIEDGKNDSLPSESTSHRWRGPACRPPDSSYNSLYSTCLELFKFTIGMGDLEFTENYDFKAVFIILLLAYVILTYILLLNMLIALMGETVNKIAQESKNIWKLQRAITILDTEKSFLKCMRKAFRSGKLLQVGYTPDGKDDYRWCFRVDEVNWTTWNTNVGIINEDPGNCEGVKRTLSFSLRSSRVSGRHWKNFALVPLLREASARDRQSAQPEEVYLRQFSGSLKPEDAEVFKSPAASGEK
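Cells expressing TRPV1 were dye-loaded with Fluo-8 and read kinetically: 10 s baseline, 3 min after compound (agonist portion), then 2 min after EC20 capsaicin (allosteric enhancer portion). Calcium-bound dye fluorescence at 480/520 nm.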
ClpP mod – qHTS Assay for Activators of ClpP. purified B. subtilis ClpP, FRET peptide cleavage, 20 min. ATP-dependent Clp protease proteolytic subunit (Bacillus subtilis (strain 168)), P80244. Potency, µM (doses to about 57.5 µM), without a hit: top-dose activity change, negative = active. 1.9% of 340,000 active; active = well fitted falling curve with a large enough effect; inconclusive = small, poorly fitted or top-dose-only effect; inactive = no such curve, though single readings can be large or run the other way; also: potency is read from the fitted curve at half-maximal effect; the source files actives as falling curves though it sought activators and does not explain the sign; nearly all actives have a fitted effect of over 65% in size; many hits overshoot -100%
Target sequence (P80244 whole entry, looked up): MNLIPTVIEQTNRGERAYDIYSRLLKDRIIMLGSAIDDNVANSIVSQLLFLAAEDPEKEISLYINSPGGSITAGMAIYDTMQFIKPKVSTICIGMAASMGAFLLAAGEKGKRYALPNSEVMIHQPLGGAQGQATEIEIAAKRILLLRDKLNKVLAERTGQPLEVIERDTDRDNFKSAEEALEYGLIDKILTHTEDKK
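Buffer: 100 mM Tris/HCl pH8, 100 mM KCl, 0.05% low protease BSA, 2.5% glycerol, 0.01% Tween-20. ClpP 10 microg/mL final; 20 min RT; delta FRET normalized to ADEP and DMSO controls.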
Sfp inh – blocks B. subtilis Sfp PPTase activity. Q9F4F7. 3.5% of 310,000 active. Biochemical Sfp PPTase activity, qHTS. Potency, µM, without a hit: max response, negative = inhibition, hits mostly inhibitors; active = well fitted inhibition curve with a large enough effect; inconclusive = small, poorly fitted or top-dose-only effect, or another doubt; inactive = no such curve, though single readings can be large or run the other way;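 also: the enzyme is Sfp with the accession as filed and its product quenches rhodamine fluorescence; potency is read from the fitted curve at half-maximal effect; 0% = enzyme reaction without inhibitor and -100% = no enzyme wells; top concentration of the series not given in the record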
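With Hepes-Na pH 7.6 buffer containing 10 mM MgCl2, Sfp (15 nM) modified BHQ-2-YbbR (12.5 uM) using rhodamine-CoA (5 uM). Two reads 30 minutes apart at 525/598 nm yielded each well's rate.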
gsp antag – gsp mutant antagonism; 0.4% of 340,000 active; AID 624288; Potency, µM (series often up to 76.9 µM), for inactives: at the top dose activity change, negative = inhibition, most hits filed as inhibitors; gsp-mutant cells, cAMP HTRF, 30 min; control for the full effect not named in the record; active = falling curve of any shape with a large fitted effect; inconclusive = falling curve, mostly with a smaller effect; inactive = flat or rising curve; cell line not stated here;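 also: intracellular cAMP measured with PDE inhibitor Ro 20-1724 present during compound exposure; potency is read from the fitted curve at half-maximal effect; % is scaled to controls: 0 for no effect and ±100 for the full control effect; nearly all actives have a fitted effect of over 65% in size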
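G418-selected cells were plated in DMEM/10% FBS for 16-24 h at 37C, then treated with compounds plus the PDE inhibitor […] (300 uM solution added) for 30 min at 37C. Intracellular cAMP was measured by HTRF after 30 min lysis at room temperature.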
gsp ag – gsp mutant agonism; gsp mutant cells, cAMP HTRF, 30 min; control for the full effect not named in the record; Potency, µM (highest dose often 76.9 µM), inactives show top-dose activation (cAMP increase), hits mostly activators; 0.13% of 340,000 active; AID 624287; active = well fitted activation curve with a large enough effect; inconclusive = small, poorly fitted or top-dose-only effect, or another doubt; inactive = no such curve, though single readings can be large or run the other way; cell line not stated here;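 also: phosphodiesterase inhibitor Ro 20-1724 added with compounds to block cAMP breakdown; potency is read from the fitted curve at half-maximal effect; nearly all actives have a fitted effect of over 60% in size; about a fifth of the inactives were tested at one dose only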
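Cells stably selected in G418 were plated at 2000/well, grown 16-24 hr, then given compounds in DMSO with the PDE inhibitor […] (300 uM solution added) for 30 min at 37C; cAMP was read by HTRF.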
CtBP-E1A blk – inhibitors of CtBP/E1A interaction; activity change, % (concentration not given with the values); AlphaScreen GST-E1A/His-CtBP binding, 1536-well; stronger effect = lower value; control for the full effect not named in the record; 0.49% of 340,000 active; in the data active means activity change below about -65%; inconclusive means about -30% to -65%; inactive means above about -30%; also: % is scaled to controls: 0 for no effect and ±100 for the full control effect
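Homogeneous bead-based format: GST-tagged E1A captured on glutathione donor beads, His-tagged CtBP on nickel acceptor beads; compounds precede bead addition by 2 h at 37 °C.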
The depositor's hits bear a star; u = inconclusive; x = no result given; & = joins results of further samples; [ ] = another dose, or the depositor's remark. Random draw from the library (roughly 5.3% active in at least one column).

Start of the data: the first 3 compounds, to show the layout:
SMILES | Menin MLL FP FL | TRPV1 PAM | ClpP mod | Sfp inh | gsp antag | gsp ag | CtBP-E1A blk
COc1ccc(C2c3[nH]c4ccccc4c3CCN2C(=O)c2cn3ccccc3n2)c(F)c1 (stereo not given) | 0.8 | -2 | x | 4% | -19% | 1% | -2
O=C(CCN(CCO)Cc1ccccc1)Nc1ccc(Br)cc1 | -0.7 | 3 | -1.5% | -6% | 10% | -65%[inhibitor] | -3
CC(=O)C1=C(C)NC(SCC(=O)Nc2nc3ccccc3s2)=C(C#N)C1c1ccc(Cl)cc1 (stereo not given) | 7.6 | -5 | -18% | 40µM* | -26% | -3% | -1

The listing, repeating the preview:
SMILES | Menin MLL FP FL | TRPV1 PAM | ClpP mod | Sfp inh | gsp antag | gsp ag | CtBP-E1A blk
COc1ccc(C2c3[nH]c4ccccc4c3CCN2C(=O)c2cn3ccccc3n2)c(F)c1 (stereo not given) | 0.8 | -2 | x | 4% | -19% | 1% | -2
O=C(CCN(CCO)Cc1ccccc1)Nc1ccc(Br)cc1 | -0.7 | 3 | -1.5% | -6% | 10% | -65%[inhibitor] | -3
CC(=O)C1=C(C)NC(SCC(=O)Nc2nc3ccccc3s2)=C(C#N)C1c1ccc(Cl)cc1 (stereo not given) | 7.6 | -5 | -18% | 40µM* | -26% | -3% | -1
O=C(COC(=O)CCSc1ccc(Cl)cc1)Nc1ccc(F)cc1 | -4.7 | 9 | -1.4% | 17% | -2% | 6% | -5
O=C(NCc1ccccc1)C12CC3CC(CC(Br)(C3)C1)C2 | 0.5 | 1 | x | 20% | u | -17% | 3
O=C(NCc1ccc(F)cc1)c1cnc2n(c1=O)CCS2 | -0.4 | 7 | -4.6% | 19% | -4% | 29% | 3
COc1cc2[nH]c(=S)n(CCN3CCCCC3C)c(=O)c2cc1OC (stereo not given) | 1.8 | 15 | 2.5% | -6% | 12% | -24% | 20
Cc1ccc2nc(SC(C)C(=O)N3CCOCC3)[nH]c2c1 (stereo not given) | -1.3 | -16 | x | 6% | 15% | 2%[15.4 µM] | -2
C[C@@H](C(=O)NCc1ccc(S(C)(=O)=O)cc1)[C@H]1C[C@]1(C)[C@H](NC(=O)OCc1ccccc1)c1ccccc1 | 0.9&0.4 | -15 | -0.8% | 0%&15% | -15% | x | 4
O=S(=O)(Nc1cccc(Cl)c1)c1ccc2oc(=S)[nH]c2c1 | 0.5 | -7 | x | 11% | x | 10%[15.4 µM] | 5
Cc1ccc(S(=O)(=O)N(CC(=O)NCCC2=CCCCC2)Cc2ccccc2F)cc1 | -1.4 | -30 | 1.2% | -2% | -15% | 1% | 0
O=c1c(/C=N/O)c(Nc2ccccc2)nc2ccccn12 | 3.4 | 20 | 0.9% | -18% | -4% | -15% | -24
CCOC(=O)Cc1csc(NC(=O)c2ccc(OC)c(OC)c2)n1 | 1.4 | -3 | -0.4% | 24% | -3% | -33%[inhibitor] | 5
CNC(=O)c1cc2cc(Cl)cc(OC)c2oc1=O | x | x | -2.2% | x | -10% | -11% | 2
COC(CNC(=O)c1cccnc1)OC | -3.9 | -5 | -0.5% | 3% | 4% | 0% | x
O=C(NNC(=O)OCc1ccccc1)OCc1ccccc1 | x | x | x | x | 8% | -4% | 2
CC(C)[C@H](NC(=O)NCCC1=CCCCC1)C(=O)O | 4.3 | 8 | -0.4% | 18% | 10% | -13% | -5
Cc1cc(OCC(O)CN2CCCC2)cc(C)c1Cl (stereo not given) | x | -6 | 5.4% | 12% | 11% | -14% | -9
N#Cc1c2c(c(=S)n(-c3ccccc3)c1N)CCCC2 | u | -1 | -0.3% | 32µM* | 3% | 7% | -11
CCN(CC)S(=O)(=O)c1ccc(N2CCOCC2)c(NC(=O)c2ccco2)c1 | x | x | x | x | 1% | u | -8
O=C(COC(=O)C1CC(=O)N(C2CCCCC2)C1)c1ccc(F)cc1 (stereo not given) | -4.3 | -18 | -0.5% | -15% | -5% | 21% | -2
O=C(c1coc2ccc(O)c(CN3CCOCC3)c12)C1CC1 | 0.0 | 6 | 0.3% | 17% | 5% | -8%[15.4 µM] | 18
CCSc1nnc(NC(=O)c2cccs2)s1 | 0.6 | 7 | 0.9% | -1% | -17% | 10% | 3
CCNc1nc(NC(C)C)nc(NS(=O)(=O)c2ccc(N)cc2)n1 | 1.9 | -24 | 0.7% | 11% | 2% | -23% | -8
CCOC(=O)CSc1n[nH]c(NC(=O)CC)n1 | 3.3 | 15 | x | 7% | 14% | 10%[15.4 µM] | 0
COC(C[C@H](O)CC(=O)[C@@H](C)OCc1ccccc1)OC | x | x | 3.4% | x | 5% | x | 5
O=C(NC1CC(=O)N(c2ccc3c(c2)OCCO3)C1)N1CCC(O)CC1 (stereo not given) | x | 1 | -6.6% | x | 11% | -12% | 12
O=C(NC1CC1)C1=C[C@@H](c2c[nH]c3ccccc23)C[C@@H](OCc2ccc(CO)cc2)O1 | 1.4 | u | -14% | 7% | -2% | x | -29
CCCc1[nH][nH]c(=O)c1C(c1ccccc1)C(C#N)C#N (stereo not given) | 6.6 | 7 | -0.6% | -28% | -11% | -31% | 7
CCCCCn1c(CN2CCN(CCO)CC2)nc2c1c(=O)n(C)c(=O)n2C | -0.4 | 8 | 1.0% | 9% | 3% | -57% | 1
CS(=O)(=O)N(Cc1ccc(Cl)cc1)c1ccc(C(=O)NCc2ccccn2)cc1 | 4.7 | -6 | x | 14% | -10% | -10%[15.4 µM] | -7
O=C(COc1ccccc1Br)NC(=O)NC1CCCC1 | x | -22 | x | x | 8% | -10%[15.4 µM] | -1
COc1ccc(CC(=O)n2[nH]c(=O)cc(C)c2=O)cc1OC | 1.0 | 3 | x | u | u | -3%[15.4 µM] | 0
CCc1nnc(NC(=O)C(C)N2C(=O)C3C4C=CC(C4)C3C2=O)s1 (stereo not given) | 1.3 | -24 | -0.5% | 7% | 15% | -1% | 5
COc1ccc(C(C)(C)NC(=O)C2CCC(=O)N(CCCN3CCCC3=O)C2)cc1 (stereo not given) | -5.8 | 2 | 0.9% | 34%[activator] | 14% | -11% | 1
CN(C)CCCN(C(=O)COc1ccc(Cl)cc1)c1nc2ccc(F)cc2s1 | -1.2 | 0 | x | -23% | -8% | -5% | -13
CN(C)CCCNc1ccc(-c2cc(Nc3cccc(Cl)c3)ncn2)cn1 | 4.2 | 20 | 3.8% | -11% | -1% | 0% | 0
COc1ccc(CCNC(=O)C2CCCN2C(=O)Nc2cccc(C(C)=O)c2)cc1OC (stereo not given) | 1.5 | 4 | -1.5% | 15% | 13% | 5% | 10
CC(=O)Nc1ccc(-c2csc(N/N=C(/C)c3ccccc3)n2)cc1 | 0.9 | -8 | x | 40µM* | -4% | u | -6
CSCCC(NC(=O)c1ccccc1Cl)C(=O)N1CCN(c2ccccn2)CC1 (stereo not given) | x | x | u | x | -7% | 14%[15.4 µM] | 7
O=C(NCCCO)/C(=C\C=C\c1ccccc1)NC(=O)c1ccccc1Cl | -2.0 | -12 | 28µM* | 4% | -16% | -16% | 0
O=C(c1cnc(Cl)c(Cl)c1)N1CCN(S(=O)(=O)c2ccc3ccccc3c2)CC1 | x | 16 | -6.8% | x | -24% | 19% | -6
O=C(O)CSc1cc(NS(=O)(=O)c2ccc(Cl)cc2)c2ccccc2c1O | u | 15 | x | 10µM* | -7% | 1% | u
C[C@@H]1CN([C@@H](C)CO)C(=O)CCCn2nncc2CO[C@H]1CN(C)C(=O)c1ccccc1 | x | x | -1.3% | x | x | -57%[inhibitor] | 2
O=C(CSc1nc2ccccc2c(=O)n1Cc1ccc(C(=O)NC2CC2)cc1)NCc1ccco1 | 3.5 | 1 | -5.0% | -15% | -1% | 2% | -12
Cc1onc(-c2ccccc2)c1C(=O)Nc1sc2c(c1C(N)=O)CCC2 | 14 | -9 | 0.9% | u | -12% | -1% | -16
COc1cccc(N2[C@@H](CC(C)=O)c3ccccc3S2(=O)=O)c1 | x | x | 0.3%&-0.7% | x | 9% | u | x
COc1ccc(CNC(=O)c2cc3c(s2)CN(Cc2ccccc2)C3)cc1 | 8.7 | -23 | x | u | -7% | 12%[15.4 µM] | 0
O=S(=O)(Cc1ccccc1)Oc1ccccc1 | -2.7 | -3 | x | -2% | -5% | 1% | 14
N#C/C(=C\c1ccc[nH]1)C(=O)NC1CC1 | 4.4 | -1 | 1.5% | 23% | -1% | -11% | 10
The results go on:
SMILES | Menin MLL FP FL | TRPV1 PAM | ClpP mod | Sfp inh | gsp antag | gsp ag | CtBP-E1A blk
CNc1ncnc(Sc2nc(N)nc3nc[nH]c23)c1[N+](=O)[O-] | x | x | -4.1% | x | 1% | u | -7
CCOc1cc(S(=O)(=O)NCCN2CCOCC2)c(C)cc1C | -2.7 | 4 | 1.8% | 8% | 1% | -9% | -3
O=[N+]([O-])c1cccc(N(CC(O)CN2CCCC2)S(=O)(=O)c2ccccc2)c1 (stereo not given) | -1.9 | 7 | 0.0% | 10% | 7% | u | -2
CC(=O)NCC(=O)N(C)C(C(=O)Nc1ccc(C(C)C)cc1)c1ccccc1 (stereo not given) | 1.2 | -10 | -4.3% | -8% | 8% | -39%[inhibitor] | 0
O=S(=O)(Nc1ccc(S(=O)(=O)N2CCCC2)cc1)c1ccc(F)cc1F | x | x | -0.7% | x | -6% | 1%[15.4 µM] | -10
Cc1ccc(NC(=O)Cn2nnc(C(=O)NCc3ccco3)c2N)c(C)c1 | 3.1 | -6 | 0.4% | -5% | 18% | -5% | 1
C[C@H](CO)N1C[C@H](C)[C@@H](CN(C)C(=O)CN2CCOCC2)Oc2cc(Br)ccc2S1(=O)=O | x | x | -0.6% | x | x | -17% | -1
C=CCNC(=O)C(C)N1C(=O)c2ccccc2C1=O (stereo not given) | 1.8 | -8 | -2.4% | -12% | 0% | -30%[inhibitor] | -8
CC(=O)c1ccc(OCC(=O)NC(=O)NC2CCCC2)cc1 | x | x | 2.3% | x | x | -107%[inhibitor] | -1
Cc1c(C(=O)NC(C)c2ccccn2)oc2c(Cl)cccc12 (stereo not given) | x | -10 | -13% | x | 0% | -1%[15.4 µM] | -17
COc1ccc(NC(=O)c2ccc3ccccc3c2)cc1NS(=O)(=O)c1ccc(F)cc1 | 8.4 | -31 | 2.0% | 10% | 5% | -22% | 9

Screening data: PubChem, National Center for Advancing Translational Sciences (NCATS)
